Menin MLL FP FL: displaces fluorescein MLL peptide from human menin; AID 1766; 290,000 tested, under 10 active; Fluorescence polarization, fluorescein-MLL peptide displacement from menin; FP activity change, % at 61.4 µM; inconclusive = falling polarisation curve, or a change in total fluorescence; inactive = total fluorescence flat and polarisation flat or rising; no compound was filed as active; the % refers to the polarisation; negative = inhibition;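 also: % of control where 0% means no effect; inhibitors lower the polarisation; unlabelled MLL peptide was the positive control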
D2 potentiator: potentiates the human D2 dopamine receptor allosterically. P14416. DiscoveRx D2 beta-arrestin cells, luminescence, 90 min; 100% = 57 uM dopamine signal. potentiation, % (no concentration beside the values). hit rate 0.23% among 360,000. AID 624464; active = potentiation of 50% or more; inconclusive = 30% to 50%; inactive = 30% or less;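 also: compound concentration not given in the record; tested on top of an EC20 dose of dopamine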
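D2 cells co-treated with compound plus 50 nM dopamine (EC20) for 90 min at 37 deg C to detect potentiation. Beta-arrestin recruitment was read as enzyme-fragment luminescence after 1 h at ambient temperature. Full response was set by 57 uM dopamine.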
ClpP mod: qHTS Assay for Activators of ClpP. purified B. subtilis ClpP, FRET peptide cleavage, 20 min. ATP-dependent Clp protease proteolytic subunit (Bacillus subtilis (strain 168)), P80244. hit rate 1.9% among 340,000. Potency, µM (doses to about 57.5 µM), for the others: top-dose activity change, negative = active. AID 651965, 2013; active = well fitted falling curve with a large enough effect; inconclusive = small, poorly fitted or top-dose-only effect; inactive = no such curve, though single readings can be large or run the other way; also: potency is read from the fitted curve at half-maximal effect; the source files actives as falling curves though it sought activators and does not explain the sign; nearly all actives have a fitted effect of over 65% in size; many hits overshoot -100%
Target sequence (P80244 whole entry, looked up): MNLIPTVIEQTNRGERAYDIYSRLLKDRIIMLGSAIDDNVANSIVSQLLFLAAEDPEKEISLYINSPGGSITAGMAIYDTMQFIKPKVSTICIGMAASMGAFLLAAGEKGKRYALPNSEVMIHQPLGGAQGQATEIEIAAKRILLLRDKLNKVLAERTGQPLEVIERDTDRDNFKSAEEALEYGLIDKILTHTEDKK
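FRET quenching reversal measured ClpP activation: 10 microg/mL B. subtilis ClpP at pH 8 with the FRET-FV decapeptide, read at 430 nm after 320 nm excitation. The 20-min minus 0-min signal was scaled between DMSO/no-enzyme wells and ADEP (5.8 microM final).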
gsp agonist: activates gsp, the McCune-Albright syndrome mutation. gsp mutant cells, cAMP HTRF, 30 min; control for the full effect not named in the record. Potency, µM (highest dose often 76.9 µM), inactives show at the highest dose activation (cAMP increase), most hits filed as activators. hit rate 0.13% among 340,000; active = well fitted activation curve with a large enough effect; inconclusive = small, poorly fitted or top-dose-only effect, or another doubt; inactive = no such curve, though single readings can be large or run the other way; cell line not stated here;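 also: phosphodiesterase inhibitor Ro 20-1724 added with compounds to block cAMP breakdown; potency is read from the fitted curve at half-maximal effect; nearly all actives have a fitted effect of over 60% in size; about a fifth of the inactives were tested at one dose only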
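Cells stably selected in G418 were plated at 2000/well, grown 16-24 hr, then given compounds in DMSO with the PDE inhibitor […] (300 uM solution added) for 30 min at 37C; cAMP was read by HTRF.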
Sfp PPTase inh: inhibitors of Bacillus subtilis Sfp phosphopantetheinyl transferase; Q9F4F7; Potency, µM, inactives show max response, negative = inhibition, hits mostly inhibitors; hit rate 3.5% among 310,000; AID 1490; Biochemical Sfp PPTase activity, qHTS; active = well fitted inhibition curve with a large enough effect; inconclusive = small, poorly fitted or top-dose-only effect, or another doubt; inactive = no such curve, though single readings can be large or run the other way;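 also: the enzyme is Sfp with the accession as filed and its product quenches rhodamine fluorescence; potency is read from the fitted curve at half-maximal effect; 0% = enzyme reaction without inhibitor and -100% = no enzyme wells; top concentration of the series not given in the record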
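After 15 min at room temperature with compound, 15 nM Sfp received 5 uM rhodamine-CoA plus 12.5 uM BHQ-2-ybbR (50 mM Hepes pH 7.6, 10 mM MgCl2). Rate came from the fluorescence difference over 30 min, ex 525/em 598 nm.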
TRPV1 potentiator: human TRPV1 potentiation; Q8NER1; TRPV1-expressing cells, Fluo-8 calcium influx, capsaicin EC20 potentiation; host cell line not named in the record; control for the full effect not named in the record; potentiation, % at 8.33 µM; hit rate 0.02% among 320,000; AID 540277; active means potentiation above 80%; inconclusive means 30% to 80%; inactive means below 30%; also: 0% is about no effect
Target sequence (Q8NER1 whole entry, looked up): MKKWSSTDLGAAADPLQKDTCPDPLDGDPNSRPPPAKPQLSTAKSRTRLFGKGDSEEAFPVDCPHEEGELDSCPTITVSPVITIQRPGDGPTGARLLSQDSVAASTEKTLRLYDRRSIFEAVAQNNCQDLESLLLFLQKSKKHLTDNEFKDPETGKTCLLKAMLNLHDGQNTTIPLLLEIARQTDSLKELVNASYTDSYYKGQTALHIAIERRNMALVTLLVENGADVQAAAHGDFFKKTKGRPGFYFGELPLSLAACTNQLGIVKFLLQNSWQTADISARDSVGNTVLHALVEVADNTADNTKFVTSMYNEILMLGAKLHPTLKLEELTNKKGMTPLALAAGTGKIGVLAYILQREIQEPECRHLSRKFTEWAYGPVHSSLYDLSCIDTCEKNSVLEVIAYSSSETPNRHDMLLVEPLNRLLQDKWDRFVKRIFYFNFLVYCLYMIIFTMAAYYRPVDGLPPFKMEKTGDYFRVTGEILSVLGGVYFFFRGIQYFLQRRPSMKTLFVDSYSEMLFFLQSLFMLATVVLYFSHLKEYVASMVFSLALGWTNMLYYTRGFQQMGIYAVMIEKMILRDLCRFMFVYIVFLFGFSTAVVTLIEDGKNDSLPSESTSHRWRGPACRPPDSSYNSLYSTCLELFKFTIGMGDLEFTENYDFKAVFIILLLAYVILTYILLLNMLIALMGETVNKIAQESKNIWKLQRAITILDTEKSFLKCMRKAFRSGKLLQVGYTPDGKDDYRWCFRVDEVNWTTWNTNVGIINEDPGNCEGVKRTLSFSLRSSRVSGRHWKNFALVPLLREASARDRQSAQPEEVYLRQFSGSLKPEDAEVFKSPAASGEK
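TRPV1-expressing cells were cultured overnight at 35.5C and loaded with Fluo-8 calcium dye for 40 to 90 min at room temperature. After a 10 s baseline, compound was added and calcium influx was read kinetically for 3 min (ex 480/em 520 nm).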
gsp antag: antagonizes gsp, the McCune-Albright syndrome mutation | gsp-mutant cells, cAMP HTRF, 30 min; control for the full effect not named in the record | Potency, µM (titrated, usually from 76.9 µM), without a hit: at the highest dose activity change, negative = inhibition, most hits filed as inhibitors | hit rate 0.4% among 340,000 | AID 624288; active = falling curve of any shape with a large fitted effect; inconclusive = falling curve, mostly with a smaller effect; inactive = flat or rising curve; cell line not stated here;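 also: intracellular cAMP measured with PDE inhibitor Ro 20-1724 present during compound exposure; potency is read from the fitted curve at half-maximal effect; % is scaled to controls: 0 for no effect and ±100 for the full control effect; nearly all actives have a fitted effect of over 65% in size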
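Measurement of cellular cAMP by homogeneous time-resolved fluorescence following a 30 min compound exposure at 37C. The PDE inhibitor […] was present throughout; the assay buffer was DPBS with 0.05% BSA and 0.005% Tween 20.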
* = called active by the depositor; u = inconclusive; x = no result given; [ ] = remark or other dose. Compounds as they come (roughly 5.1% active in at least one column).

Start of the data: the first 5 records, ahead of the listing:
SMILES | Menin MLL FP FL | D2 potentiator | ClpP mod | gsp agonist | Sfp PPTase inh | TRPV1 potentiator | gsp antag
CSc1cccc(-c2nnc(NC(=O)c3cccc(N4C(=O)CCC4=O)c3)o2)c1 | x | -7 | -3.3% | -100%[inhibitor] | x | 9 | -5%
CC(C)(C)OC(=O)N/N=C\C=C\c1ccc2c(c1)OCO2 | 0.1 | 13 | -11% | -9% | 6% | -5 | -3%
Cc1ccc(C)c(OCCC(=O)OCC(=O)Nc2cc(S(=O)(=O)N3CCOCC3)ccc2C)c1 | x | -18 | 0.5% | -16%[15.4 µM] | x | 2 | 6%
Cn1c(N)c(S(=O)(=O)N2CCN(Cc3ccccc3)CC2)c(=O)n(C)c1=O | -3.5 | -4 | x | -7% | 26% | -1 | 10%
CCOc1ccc(-n2c(Cc3ccccc3)nnc2SCc2c(C)noc2C)cc1 | 0.9 | -10 | 2.8µM* | 14% | -1% | -3 | -11%

The list itself, repeating the preview:
SMILES | Menin MLL FP FL | D2 potentiator | ClpP mod | gsp agonist | Sfp PPTase inh | TRPV1 potentiator | gsp antag
CSc1cccc(-c2nnc(NC(=O)c3cccc(N4C(=O)CCC4=O)c3)o2)c1 | x | -7 | -3.3% | -100%[inhibitor] | x | 9 | -5%
CC(C)(C)OC(=O)N/N=C\C=C\c1ccc2c(c1)OCO2 | 0.1 | 13 | -11% | -9% | 6% | -5 | -3%
Cc1ccc(C)c(OCCC(=O)OCC(=O)Nc2cc(S(=O)(=O)N3CCOCC3)ccc2C)c1 | x | -18 | 0.5% | -16%[15.4 µM] | x | 2 | 6%
Cn1c(N)c(S(=O)(=O)N2CCN(Cc3ccccc3)CC2)c(=O)n(C)c1=O | -3.5 | -4 | x | -7% | 26% | -1 | 10%
CCOc1ccc(-n2c(Cc3ccccc3)nnc2SCc2c(C)noc2C)cc1 | 0.9 | -10 | 2.8µM* | 14% | -1% | -3 | -11%
Cn1c(=O)[nH]c(=O)c2c1nc(N1CCCCCC1)n2CCN1CCCCCC1 | 0.3 | -38 | 0.7% | 15% | 15% | -8 | 5%
C=CCn1c(C(C)NC(=O)C(C)(C)C)nc2ccccc21 (stereo unspecified) | -0.8 | -5 | 1.1% | 1% | 6% | 13 | -1%
COc1cc(CC(=O)N2CCN(C(=O)C3CCCO3)CC2)cc(OC)c1OC (stereo unspecified) | x | -3 | x | -16% | x | x | 16%
Fc1cccc(CNC2CCN(CCc3ccccc3)CC2)c1 | 1.4 | -4 | -1.3% | 22% | -27% | -2 | -5%
O=C(COc1ccc2oc(-c3ccccc3)cc(=O)c2c1)NCc1ccco1 | 3.0 | -4 | 35µM* | -19% | -16% | -6 | -12%
CCC(C)NC(=O)CC1Oc2ccc(C)cc2NC1=O (stereo unspecified) | 0.0 | -4 | 0.5% | u | u | 10 | -9%
COc1ccc(N2Cc3ccccc3/C2=N\C(=O)Nc2ccccc2)cc1 | 2.8 | -6 | x | 16%[15.4 µM] | 17% | 2 | -2%
CCC(CC)c1nnc(NC(=O)C23CC4CC(CC(NC(C)=O)(C4)C2)C3)s1 | 2.6 | 2 | 1.0% | 16% | 2% | 3 | -9%
CCc1ccc(NC(=O)C2CCCN2C(=O)NC2CCCCC2)cc1 (stereo unspecified) | x | 1 | x | -20% | 7% | 0 | 4%
S=c1[nH]nc(C2CCCCC2)n1/N=C/c1cccc(Br)c1 | 0.6 | -6 | 1.2% | -3%[15.4 µM] | 15% | 5 | 0%
O=C(Oc1ccccc1Cl)c1ccc2c(=O)n3c(nc2c1)CCC3 | x | -12 | 2.1% | 4% | x | 2 | -14%
CN1CCN(C(=S)NC(=O)c2ccc(S(=O)(=O)N3CCOCC3)cc2)CC1 | -1.1 | -15 | 2.5% | 2% | 45µM* | -1 | 7%
O=C(/C=C/c1ccccc1[N+](=O)[O-])Nc1cccc(S(=O)(=O)NC2=NCCCCC2)c1 | x | -21 | -1.9% | x | x | x | -29%
Cc1cccc(/C=C(\C(=O)O)c2ccc(S(=O)(=O)N3CCCC3)s2)c1 | x | 1 | -12% | -39% | x | x | -12%
CCOc1ccccc1CNS(=O)(=O)c1ccc2[nH]c(=O)sc2c1 | 5.8 | -5 | 1.2% | -17% | u | 8 | 5%

Filtered by structure: those above with an aryl methoxy group (two)
SMILES | Menin MLL FP FL | D2 potentiator | ClpP mod | gsp agonist | Sfp PPTase inh | TRPV1 potentiator | gsp antag
COc1cc(CC(=O)N2CCN(C(=O)C3CCCO3)CC2)cc(OC)c1OC (stereo unspecified) | x | -3 | x | -16% | x | x | 16%
COc1ccc(N2Cc3ccccc3/C2=N\C(=O)Nc2ccccc2)cc1 | 2.8 | -6 | x | 16%[15.4 µM] | 17% | 2 | -2%

Continued:
SMILES | Menin MLL FP FL | D2 potentiator | ClpP mod | gsp agonist | Sfp PPTase inh | TRPV1 potentiator | gsp antag
CSc1ccccc1NC(=O)CSc1n[nH]c(C)c1[N+](=O)[O-] | 1.3 | -6 | -0.2% | 12% | -26% | 3 | -23%
C[C@@H]1CN([C@H](C)CO)C(=O)CCCn2nncc2CO[C@H]1CN(C)S(=O)(=O)c1ccc2c(c1)OCCCO2 | x | -1 | 1.1% | 32% | x | x | x
O=C(CCc1nc2ccccc2c(=O)[nH]1)Nc1ccccc1N1CCCC1 | x | -8 | -3.6% | 8% | x | 11 | -8%
O=C(CNC(=O)c1ccccc1Cl)c1ccccc1 | 1.2 | -1 | x | -34%[inhibitor] | 6% | 10 | 12%
O=C1OC(C(=O)NCc2ccccc2)Cc2ccccc21 (stereo unspecified) | -2.5 | -4 | 1.2% | 15% | -4% | 1 | 15%
Cc1ccccc1-n1c(SCc2csc(Nc3ccccc3)n2)nnc1-c1cccnc1 | 5.2 | 9 | -0.5% | -9% | -15% | -11 | u
CCc1ccc(NC(=O)c2cnc(N3CCN(c4ccccn4)CC3)c3ccccc23)cc1 | 3.8 | -3 | x | 4%[15.4 µM] | 2% | 24 | -22%
C/C=C\C=C\C(=O)Nc1cccc(C2=NOC3(C2)C[C@H](C(N)=O)N(C(=O)c2ccccc2C(=O)c2ccccc2)C3)c1 (stereo partly specified) | -0.3 | -6 | -2.5% | -31% | -13% | 10 | -16%
Cc1ccc2nc(/C(C#N)=C\c3cc(O)ccc3[N+](=O)[O-])[nH]c2c1 | 5.5 | -6 | x | 16%[15.4 µM] | 9% | 5 | -1%
C=CCn1c(=O)/c(=C\c2ccsc2)s/c1=C(/C#N)C(=O)NCCN1CCOCC1 | 13 | -18 | -0.9% | -20% | 7% | -20 | 6%
COc1cc(NC(=O)C(F)(F)F)cc(OC)c1 | 0.9 | -2 | -1.5% | -18% | 12% | 6 | 4%
CN(c1ccc(C(=O)NCc2cccs2)cc1)S(=O)(=O)c1ccccc1 | -0.2 | -9 | -0.3% | 1% | 12% | -3 | -12%
O=C1/C(=C/c2ccccc2[N+](=O)[O-])COc2ccccc21 | 0.9 | -6 | 1.4% | -78%[inhibitor] | 1% | 7 | -11%
CC1CC(c2ccccc2)NS(=O)(=O)O1 (stereo unspecified) | 1.1 | -4 | -2.7% | x | 13% | 10 | 1%
Cc1ccc(SCCC(=O)Nc2ccc(OCc3ccccc3)cc2)cc1 | 1.9 | -15 | 4.1% | -3% | 7% | 7 | 11%
O=C(NCc1ccncc1)Nc1ccccc1 | -1.7 | -6 | 0.0% | 7% | 2% | 5 | 3%
CCN(C(=O)CSc1nnc(C)n1-c1cccc(C)c1)C1CCS(=O)(=O)C1 (stereo unspecified) | x | 0 | -1.7% | -7% | x | u | 5%
CCCn1nc(C(=O)Nc2ccc3c(c2)OCCO3)c2ccccc2c1=O | x | -7 | 0.8% | -11% | x | -14 | -15%
CC1=C(C)C(=O)OC(C(C)C2CCC3C4CC=C5CC(OC6OC(COC7OC(CO)C(O)C(O)C7O)C(O)C(O)C6O)CC(O)C5(C)C4CCC23C)C1 (stereo unspecified) | -0.1 | -15 | 2.2% | x | -9% | 26 | 7%
Cc1ccc(Cc2c(-c3ccc(F)cc3)nc3ccc(Cl)cn23)cc1 | x | -1 | u | u | x | x | x
COc1ccccc1NC(=O)CN(c1ccc(C23CC4CC(CC(C4)C2)C3)cc1)S(C)(=O)=O | 6.9 | -8 | -2.9% | 5% | 28% | 6 | -18%
O=C(O)c1cc(S(=O)(=O)N2CCCc3ccccc32)ccc1Cl | 0.1 | -6 | 0.0% | -9% | 15% | -4 | 2%
COCCNC(=O)c1ccc2c(c1)nc(C)n2-c1cc(OC)c(OC)c(OC)c1 | 3.4 | 12 | -1.0% | -10% | 31%[activator] | 12 | -1%[15.4 µM]
C[C@@H]1CN([C@H](C)CO)C(=O)CCCn2nncc2CO[C@@H]1CN(C)S(=O)(=O)c1ccc(C#N)cc1 | x | 3 | 1.7% | -58%[inhibitor] | x | x | x
CCN(CC)C1CCN(Cc2c(C(=O)N3CCCCCCC3)nc3ccc(Cl)cn23)C1 (stereo unspecified) | x | -26 | -7.5% | -33%[inhibitor] | 13% | 27 | -2%
COc1cc(OC)cc(C(=O)NNC(=O)C2CCC2)c1 | x | -23 | -7.9% | -17% | x | x | x
CC(C(=O)NCC1CCCCC1)N(C)Cc1ccc(Cl)cc1 (stereo unspecified) | -0.6 | -12 | x | -2% | 2% | -16 | 3%
Cc1c(N=c2scc(-c3ccccc3)n2CCO)c(=O)n(-c2ccccc2)n1C | -0.8 | -5 | 0.3% | -37%[inhibitor] | 12% | -1 | 5%
O=C(Nc1ccc(C(=O)O)cc1)/C(=C\c1ccco1)NC(=O)c1ccco1 | -6.1 | -4 | x | 29% | -6% | 6 | -3%
CC(C)(C)OC(=O)N/N=C/c1c[nH]c2ccccc12 | -1.3 | -1 | -0.3% | -1% | 13% | 0 | 10%
Cc1ccc(C(=O)CSc2cnc3ccccc3n2)cc1C | 10 | -14 | x | 2%[15.4 µM] | u | 8 | u
Cc1ccc(NC2CCCN(C(=O)Cc3nonc3C)C2)cc1C (stereo unspecified) | 0.7 | -11 | -1.6% | u | -4% | -11 | 3%
CCOC(=O)C1=NN(c2ccc([N+](=O)[O-])cc2)CC1C(=O)OC (stereo unspecified) | 0.0 | -6 | -2.5% | u | 9% | -8 | 29%

Source: PubChem BioAssay (National Center for Advancing Translational Sciences (NCATS))
